# HPGD block = qHTS Assay for Inhibitors of HPGD (15-Hydroxyprostaglandin Dehydrogenase) | 150,000 tested, 4.3% active | purified HPGD, NADH fluorescence kinetic, PGE2 substrate | Potency, µM, for the others: at the highest dose activity change, negative = inhibition, actives largely listed as inhibitors | 15-hydroxyprostaglandin dehydrogenase [NAD(+)] (Homo sapiens), P15428; active = well fitted inhibition curve with a large enough effect (not every such curve was filed as active); inconclusive = small, poorly fitted or top-dose-only effect, or another doubt; inactive = no such curve, though single readings can be large or run the other way;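 also: top concentration of the series not given in the record; plate controls included wells without enzyme; inactives centre near -10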
# Target sequence (P15428 whole entry, looked up): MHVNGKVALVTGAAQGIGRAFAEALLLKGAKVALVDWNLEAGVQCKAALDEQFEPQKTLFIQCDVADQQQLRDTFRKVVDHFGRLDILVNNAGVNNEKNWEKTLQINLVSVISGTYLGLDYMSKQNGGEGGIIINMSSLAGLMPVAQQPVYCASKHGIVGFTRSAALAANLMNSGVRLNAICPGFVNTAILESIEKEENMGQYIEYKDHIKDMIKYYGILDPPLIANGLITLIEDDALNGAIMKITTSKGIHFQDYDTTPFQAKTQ
#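 NADH formation kinetics: reaction with 30 uM PGE2 and 1 mM NAD+ (final), 20 nM enzyme, Tris-HCl pH 8 with Tween 20, after 15 min compound preincubation at room temperature. Fluorescence change, last versus first of five reads.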
# * = called active by the depositor; i = inactive; ? = inconclusive; & = joins results of further samples. % is scaled to controls: 0 for no effect and ±100 for the full control effect; potency is read from the fitted curve at half-maximal effect. An excerpt; rates above refer to the full screens.
HPGD block	SMILES
-5.9%	CSc1ccc(/C=c2\s/c(=C\C(=O)C(C)(C)C)n(CC(=O)NCCC3=CCCCC3)c2=O)cc1
-25.4%	CCOC(=O)c1ccccc1NS(=O)(=O)c1ccc(OCC)cc1
-6.8%	O=C(CSc1nnc2c(Cl)cc(Cl)cn12)N1CCN(c2ccc(F)cc2)CC1
0.1%	COc1ccc(-c2nnn(CC(=O)N(Cc3ccccc3Cl)C(C(=O)NCC3CCCO3)c3ccco3)n2)cc1 (stereo unspecified)
-13.0%	COc1cc(Cl)c(C)cc1NC(C)C(=O)Nc1cc(C(F)(F)F)ccc1N1CCOCC1 (stereo unspecified)
-10.8%	CCC(=O)Nc1cc(=O)[nH]c2ncnn12
11.2µM*	COC(CNC(=O)c1ccc2c(c1)nc(C)n2-c1ccc(F)c(F)c1)OC
-15.9%	N#Cc1nc(COc2ccc(Cl)cc2Cl)oc1N1CCN(c2ccccc2)CC1
20µM*	Cc1cc(C)c2c(CC(=O)O)coc2c1
-15.8%	COC(=O)[C@@]1(Cc2ccc(OC)cc2)[C@H]2c3cc(C(=O)N(C)C)n(CCN4CNCC4=O)c3C[C@H]2CN1C(=O)c1ccccc1
?	CCOC(=O)c1cc2c3ccccc3n(CC)c2nc1N
-24.2%	COc1ccc(N=Nc2cnc(C)nc2-c2ccccc2)cc1
-5.2%	CCCCCNC(=O)N[C@H](C(=O)O)C(C)C
1.6%	Cc1nn(Cc2c(Cl)cccc2Cl)c(Cl)c1/C=C/C(=O)OCC(=O)NCC(F)(F)F
12.6µM*	Cc1nc2cc3nc(C)sc3cc2s1
25.1µM*	CCOc1ccc2nc(NS(=O)(=O)c3ccc4c(c3)n(C)c(=O)n4C)sc2c1
?	Cc1ccc(C)c2[nH]c(=O)c(CCNC(=O)C(C)(C)C)cc12
-9.0%	COc1ccc2[nH]c(=O)c(CN(Cc3cccs3)S(=O)(=O)c3cccc4nsnc34)cc2c1
3.0%	CCn1c(SCC(=O)NCc2cccs2)nnc1-c1ccncc1
-2.9%	CC(C)Cn1c(-c2ccccc2)nc2ccccc2c1=O
-24.2%	O=S1(=O)C=C(N2CCCCC2)c2ccccc21
-9.4%	CC(C)(C)NC(=O)C(=O)N/N=C/c1cccs1
-3.4%	Cc1ccc(NC(=O)CSc2nnc(Cn3cnc4ccccc43)o2)cc1
-2.4%	CNC1C(O)[C@@H]2OC(O[C@@H]3C(O)C(O)C(N)C[C@H]3N)C(N)C[C@H]2O[C@H]1O[C@@H]1OC(CO)C(N)C(O)C1O (stereo partly specified)
-5.7%	COc1ccc(Cl)cc1NC(=O)c1ccoc1C
-7.3%	COc1ccc(NC(=S)Nc2cccc([N+](=O)[O-])c2)cc1
-1.3%	Cc1cc(Cl)ccc1NC(=S)NCCCN1CCCC1=O
-6.5%	COC(=O)Cn1cccc1C(=O)c1ccccc1
-15.6%	Cc1ccc(S(=O)(=O)N2CCN(S(=O)(=O)c3ccccc3)C2c2ccc(N(C)C)cc2)cc1 (stereo unspecified)
-6.3%	O=C(NCc1ccc(N2CCCC2=O)cc1)Nc1cccc2ccccc12
-29.0%	CCOc1ccc(N2CC(C(=O)Nc3ccc(S(=O)(=O)Nc4ncccn4)cc3)CC2=O)cc1 (stereo unspecified)
5.6%&-7.6%	CCCCS(=N)(=O)CCC(N)C(=O)O (stereo unspecified)

# Marked active in HPGD block (from the list above):
HPGD block	SMILES
11.2µM*	COC(CNC(=O)c1ccc2c(c1)nc(C)n2-c1ccc(F)c(F)c1)OC
20µM*	Cc1cc(C)c2c(CC(=O)O)coc2c1
12.6µM*	Cc1nc2cc3nc(C)sc3cc2s1
25.1µM*	CCOc1ccc2nc(NS(=O)(=O)c3ccc4c(c3)n(C)c(=O)n4C)sc2c1

# More compounds follow.
HPGD block	SMILES
-7.4%	Cc1ccc(-c2nnn(CC(=O)N(CC3CCCO3)C(C(=O)NC(C)(C)C)c3ccc(F)cc3)n2)o1 (stereo unspecified)
-7.2%	c1ccc(-c2nc(-c3ccncc3)no2)cc1
-28.5%	CS(=O)(=O)Nc1ccc([N+](=O)[O-])cc1OC1CCCCC1
-22.7%	CCN1C=CC(=C2C(=O)c3ccccc3C2=O)C=C1
-5.9%	O=C(O)CCC(=O)CCC(=O)c1ccccc1
?	C=CCn1c(CCNC(=O)c2cccs2)nnc1SCC(=O)c1ccc(Br)cc1
?	CCOC(=O)c1oc2nc(CC(C)C)c3c(c2c1N)CCC3
-7.0%	CCOc1ccccc1C(=O)Nc1nnc(CC)s1

# In a second layout: entries from further up.
Structure	HPGD block
CCOc1ccc(N2CC(C(=O)Nc3ccc(S(=O)(=O)Nc4ncccn4)cc3)CC2=O)cc1 (stereo unspecified)	-29.0%
CCCCS(=N)(=O)CCC(N)C(=O)O (stereo unspecified)	5.6%&-7.6%
Cc1ccc(-c2nnn(CC(=O)N(CC3CCCO3)C(C(=O)NC(C)(C)C)c3ccc(F)cc3)n2)o1 (stereo unspecified)	-7.4%
c1ccc(-c2nc(-c3ccncc3)no2)cc1	-7.2%
CS(=O)(=O)Nc1ccc([N+](=O)[O-])cc1OC1CCCCC1	-28.5%

# Going on with the list.
HPGD block	SMILES
-4.5%	NC(=O)[C@@H]1CCCNc2c(I)cc([N+](=O)[O-])cc2C(=O)N[C@@H](CCCN=C(N)N)C(=O)N[C@@H](CCCN=C(N)N)C(=O)N1
28.2µM*	COc1cc(NC(=S)Nc2cccnc2)cc(OC)c1
-3.0%	O=[N+]([O-])c1ccc2c(c1)Cc1cc(N=Cc3ccc4c(c3)OCO4)ccc1-2
25.1µM*	Cc1ccc(N2CCN(C(=O)c3ccccc3Br)CC2)c(C)c1
?	O=C(CN1CCOCC1)Nc1ccc(S(=O)(=O)NC2CCCCC2)cc1
?	COc1ccc(C2OC34CCCCC3C(C#N)(C#N)C2(C#N)C(=N)O4)cc1 (stereo unspecified)
-9.7%	Cn1c(=O)[nH]c(=O)c2c1nc(N1CCOCC1)n2CCSc1nc2ccccc2[nH]1
-9.4%	COc1cccc([C@@H]2Oc3ccc(Br)cc3C(=O)[C@H]2OC(=O)NS(=O)(=O)c2ccc(F)cc2)c1
0.2%	CS(=O)(=O)Nc1cccc(C(=O)CC2(O)C(=O)Nc3ccc(Br)cc32)c1 (stereo unspecified)
-13.4%	Nc1cc(N)c(OCC(F)(F)F)cc1OCC(F)(F)F
-19.1%	O=C(CCCCCNc1nc(=S)[nH]c2ccccc12)NCCc1c[nH]c2ccccc12
-10.8%	Cc1ccc(S(=O)(=O)NCC2CCC(C(=O)NCc3ccc4c(c3)OCO4)CC2)cc1 (stereo unspecified)
-1.1%	O=C(NCCCN1CCOCC1)c1ccc(CS(=O)(=O)c2cccc(C(F)(F)F)c2)o1
?	COCCNC(=O)/C(C#N)=C/c1ccc(N2CCOCC2)o1
-17.8%	Cc1nn(Cc2ccccc2)c(C)c1C(=O)OCC(=O)c1cc(C)n(C2CC2)c1C
-16.0%	O=C(CCSCc1ccccc1Cl)N1CCN(c2cccc(Cl)c2)CC1

# For reference, two of the compounds above:
HPGD block	SMILES
-17.8%	Cc1nn(Cc2ccccc2)c(C)c1C(=O)OCC(=O)c1cc(C)n(C2CC2)c1C
-16.0%	O=C(CCSCc1ccccc1Cl)N1CCN(c2cccc(Cl)c2)CC1

# Other records.
HPGD block	SMILES
-12.8%	Cc1c(C(=O)NCc2ccccc2Cl)oc2c1C(=O)CCC2
?	O=C(CSc1ccc2nnc(-c3ccc(Cl)cc3)n2n1)N1CCCC1
-18.1%	COc1ccc2c(c1)C1NC(=S)NC(C)(O2)C1C(=O)Nc1ccccc1C (stereo unspecified)
14.1µM*	Cn1sc(NC(=O)c2ccccc2Cl)nc1=O
i	OC1CCCN(c2c3c(nc4cc(-c5cccc(Cl)c5)nn24)CCC3)C1 (stereo unspecified)
0.1%	O=C(N/N=C\c1ccc(CNS(=O)(=O)c2ccccc2)o1)C(=O)Nc1ccc(F)cc1
-7.6%	Cc1ccc(C)c(NC(=O)C2CC(O)CN2C(=O)OC(C)(C)C)c1 (stereo unspecified)
-23.3%	CSCc1ccc(C(=O)NCc2ccccc2)cc1
-4.3%	Cc1ccc(NC(=O)CSc2nnc(Cn3c(=O)sc4ccccc43)n2C)cc1
-10.7%	CC(C)(C)n1nnnc1C(c1cccc(C#N)c1)N1CCCc2ccccc21 (stereo unspecified)
-3.3%	O=C(C1CCN(S(=O)(=O)N2CCC3(CC2)OCCO3)CC1)N1CCOCC1
-8.8%	CC(=O)Nc1ccc(SCC(=O)Nc2ccccc2Oc2ccccc2)cc1
-6.3%	Cc1ccc(C(=O)COc2ccccc2-c2ccccc2)cc1
-16.1%	CN1CCN(Cc2cc(COCc3ccccc3)c3cccnc3c2O)CC1
-11.8%	Cc1ccc(-c2nnn(CC(=O)N(CC3CCCO3)C(C(=O)NC3CCCCC3)c3ccc(F)cc3)n2)o1 (stereo unspecified)
4.7%	CC(=O)N1CCc2cc(S(=O)(=O)NC(CC(C)C)C(=O)Nc3cc(C)ccn3)ccc21 (stereo unspecified)
-0.3%	CC(C)Cc1nnc(NC(=O)CSc2ncn[nH]2)s1
-24.7%	CC[C@H]1NC(=O)c2cc(S(N)(=O)=O)c(Cl)cc2N1
-18.9%	CCCC(=O)C1=C(N(C)c2ccccc2)CC(C)(C)C(C(=O)OC)C1=O (stereo unspecified)
-18.1%	Cc1cc(C)n(-c2nc(NCCO)c3c4c(sc3n2)CCCC4)n1
?	COc1cc(/C=N/n2nnnc2N)ccc1O
-10.5%	CC(=O)N1CCN(CC(=O)c2ccc(Br)cc2)CC1
-6.3%	CC(=O)Nc1ccc(N(C)S(C)(=O)=O)cc1
-24.3%	O=C1Nc2cc(Cl)c(Cl)cc2N(O)N1c1ccc(Cl)c(Cl)c1
-22.7%	COC(=O)C(C)Sc1ncnc2c1c(-c1ccccc1)cn2-c1ccc(OC)cc1 (stereo unspecified)
-11.8%	CCOc1cc(NS(=O)(=O)c2ccccc2)c(OCC)cc1NC(=O)c1ccco1
-1.4%	COCCn1c(SCC(=O)N2CC(=O)Nc3ccccc32)nnc1-c1ccoc1C
-13.8%	N/C(=N\OC(=O)COc1ccc2ccccc2c1)c1ccccn1
1.2%	CCn1c(COc2ccc(=O)n(-c3ccccc3)n2)nnc1SCc1cccc(OC)c1
-5.0%	CCc1cc2cccc(C)c2nc1SCC(=O)NNC(=O)c1ccco1
-9.8%	O=C(CCS(=O)(=O)c1ccc(Br)s1)N1CCc2ccccc21
-13.9%	Cc1ccc(N(C(C)C(=O)Nc2ccc3c(c2)OCO3)S(C)(=O)=O)cc1 (stereo unspecified)
-19.3%	CCOC(=O)c1ccc(CS(=O)c2ccc(Cl)cc2)o1 (stereo unspecified)
15.8µM*	C/C(=C\C(=O)c1cccnc1)Nc1ccc(O)cc1
-5.4%	O=C(c1cc2ccccc2c(=O)o1)N1CCCc2ccccc21
?	Cc1ccc(-c2nnc3ccc(SC(C)C(=O)O)nn23)cc1 (stereo unspecified)
-10.1%	CCOC(=O)C1(Nc2nccs2)Sc2ccccc2NC1=O (stereo unspecified)
-14.7%	CCCCNC(=O)C1CCN(Cc2ccccn2)CC1
-17.8%	O=C(N/N=C/c1ccc(O)cc1)/C(=C/c1ccc([N+](=O)[O-])cc1)NC(=O)c1ccccc1
-19.8%	Cc1ccc(S(=O)(=O)N2CCCCC2)cc1NC(=O)COC(=O)Cc1ccc(Cl)cc1
-9.6%	CC(C)C(=O)Nc1ccc(S(=O)(=O)Nc2nccc(/C=C/c3ccccc3)n2)cc1
-14.9%	COc1ccc(N2C(=O)CC(SCC(=O)O)C2=O)cc1 (stereo unspecified)
-16.1%	CCOC(=O)CSc1nc2c(sc3ccc([N+](=O)[O-])cc32)c(=O)n1Cc1ccco1
-15.6%	O=C1CN(C(=O)CSc2nnc(C3CC3)n2-c2ccccc2)c2ccccc2N1
2.6%	Cc1ccc(/C=N/NC(=O)C2CCN(Cc3ccc(F)cc3Cl)CC2)o1
-12.6%	CCC(C)NC(=O)c1cnn2c1NC(c1ccc3c(c1)OCO3)CC2C(F)(F)F (stereo unspecified)
4.1%&-3.2%	C[C@H]1NC(=O)NC1=O
-4.8%	COCCCNC(=S)NC(=O)c1ccc(C)cc1
-19.9%	Cc1ccc2[nH]c(=O)c(CN(CC3CCCO3)C(=O)c3ccncc3)cc2c1 (stereo unspecified)
?	O=C(Nc1ccc2oc(-c3ccccc3)nc2c1)c1ccc2c(c1)OCCO2
-18.6%	Cc1cc(C)cc(-n2c(=O)c3sccc3n(CC(=O)NCc3ccco3)c2=O)c1
-21.4%	O=C(O)c1ccc2c(c1)N(Cc1cccc(F)c1)C(=O)CS2
-27.8%	CCOC(=O)c1c(-c2ccc(OC)cc2)csc1NC(=O)COc1ccc2c(C)cc(=O)oc2c1
17.8µM*	COc1ccc(NC(=O)C2CC(=O)n3cnnc3S2)cc1 (stereo unspecified)
-11.7%	Cc1cc(C)c(S(=O)(=O)N2CCCCC2)c(C)c1N(C)S(=O)(=O)c1ccccc1
-21.7%	C=CCOc1ccc(CNc2nccs2)cc1

# More structures follow:
HPGD block	SMILES
-7.0%	CNC(=O)[C@]1(C)C[C@H]1[C@H](NC(=O)[C@]1(C)C[C@H]1[C@H](NC(=O)[C@]1(C)C[C@H]1[C@H](NC(=O)[C@]1(C)C[C@H]1[C@H](NC(=O)OCc1ccccc1)c1ccccc1)c1ccccc1)c1ccccc1)c1ccccc1
-13.6%	Cc1cc(Br)ccc1NC(=O)C(C)c1ccc([N+](=O)[O-])cc1 (stereo unspecified)
-13.9%	OC(CNCC1COc2ccccc2O1)COCc1cccs1 (stereo unspecified)
-23.7%	COc1ccc(NC(=O)Nc2ncn(Cc3cccc(C(F)(F)F)c3)n2)cc1OC
15.8µM*	CC(CC(=O)NCC1CCCO1)c1ccccc1 (stereo unspecified)
-7.8%	CN1CCN(NC(=O)c2ccc(Cl)cc2Cl)CC1
12.6µM*	Cc1ccc(O)c(-c2cc(C(=O)Nc3ccc(S(=O)(=O)N4CC(C)OC(C)C4)cc3)[nH]n2)c1 (stereo unspecified)

# Screening data (PubChem)
